# Mtb hypoxia rep – reduces hypoxia-regulated biosensor signal in M. tuberculosis; M. tuberculosis hypoxia-regulated fluorescent reporter, fluorescence; fluorescence inhibition, % (concentration not given with the values); actives 0.1% (n = 300,000); AID 1159583;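 active = 35 to 45% if threefold the growth effect, above 45% if 1.5-fold the growth effect; inactive = the rest, general growth blockers included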;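 note: wells of about 50 µL received 100 nL stock; 0% = vehicle wells and 100% = reference inhibitor wells; whole bacteria with a GFP reporter of the hypoxia response; strong numbers were not always called active; many hits fall short of the cut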
# Bead autofluor – flagged as autofluorescent in microsphere protease counterscreen | fluorescence intensity (concentration not given with the values) | compound autofluorescence counterscreen, microsphere flow cytometry; stronger effect = higher value | actives 3.1% (n = 360,000) | AID 624483;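 active = at least 3 SD above the mean of all compounds, about 16000 in these data; inconclusive = too few beads counted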;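 note: 100 nL of 1 mM stock went into each well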
# PrP UTR inh – suppresses PrP 5' UTR mRNA reporter expression | inhibition, % (concentration not given with the values) | cell-based PrP 5' UTR mRNA reporter, plate reader | actives 0.35% (n = 340,000) | AID 488862;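 active = every replicate at 50% or more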;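 note: 0 = median of the neutral control wells; tested in H4 reporter cells; numbers are from one replicate; inactives centre near -14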
# BJeLR viability – kills HRASV12-expressing BJeLR cells. BJeLR (HRASV12) viability, CellTiter-Glo ATP luminescence, 48 h; reference of the scale not given here. inhibition, % (test concentration not listed). actives 0.17% (n = 300,000). AID 1554;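 active = replicate mean above 50%; inconclusive = above 50% but judged a plate artefact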;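 note: 50 nL library stock added to about 25 µL; numbers are from one replicate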
# ugtP null kill – compounds lethal to S. aureus RN4220 ugtP deletion mutant; growth inhibition, % (test concentration not listed); actives 0.54% (n = 330,000); AID 1259309; OD600 growth, 16 h; some inactives read as strong as hits;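 active = z-score under -3 and OD600 up to 0.15 on both plates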;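 note: plate controls were untreated wells for no effect and antibiotic for full effect; wells of about 80 µL received 100 nL stock; the first replicate is given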
# RN4220 kill – kills Staphylococcus aureus RN4220; S. aureus RN4220 growth, OD600, 16 h; inhibition, % (test concentration not listed); actives 0.33% (n = 330,000);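 active = z-score of -3 or lower and OD600 up to 0.18 on both plates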;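 note: plate controls were untreated cells for no effect and reference antibiotic for full effect; stock transfer was 100 nL into about 80 µL; one replicate is shown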
# Mtb hypoxia rep growth – second read-out of Mtb hypoxia rep, no call of its own (marks repeat the call); growth inhibition, %; measured here: M. tuberculosis growth (absorbance);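 0% = vehicle and 100% = reference antibiotic; read after six days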
# Starred values were filed as active, the others as inactive; u = inconclusive; x = no result given.
cpd	molecule	Mtb hypoxia rep	Mtb hypoxia rep growth	Bead autofluor	PrP UTR inh
1	CC(C)(C)c1ccc(C(=O)NCCCN2CCN(CCCNC(=O)c3ccc(C(C)(C)C)cc3)CC2)cc1	5	9	2440	-6
2	O=C(O)c1ccc(N2CCCCCC2)c(N2C(=O)c3ccccc3C2=O)c1	7	-2	3202	-15
3	Cc1cc(C)c(S(=O)(=O)Nc2ccc(OCC(=O)O)cc2)c(C)c1	x	x	6431	-24
4	COc1c(-c2ccc(O)c(O)c2)oc2cc(O)cc(O)c2c1=O	x	x	5886	-18
5	COC(=O)c1cc(NC(=O)c2cccs2)ccc1N1CCOCC1	15	14	4211	-19
6	CC(Sc1nc2ccccc2c(=O)n1C)C(=O)Nc1ccc2c(c1)OCCO2 (centres undefined)	-11	-3	3040	-12
7	Cc1[nH]c(=S)[nH]c(=O)c1Cc1ccc(OCC(C)C)cc1	6	5	5247	-25
8	CSc1ccc2c(c1)C(N1CCN(C)CC1)Cc1ccc(F)cc1S2 (centres undefined)	15	21	x	x
9	COc1ccc(-n2nnnc2SCC(=O)N2CCOCC2)cc1	2	-4	5532	-2
10	Fc1ccc(OCCOCCOc2cccc3[nH]ccc23)cc1	0	8	3246	11

cpd	BJeLR viability	ugtP null kill	RN4220 kill
1	12	5	3.5
2	2	-4	-12
3	-3	-1	1.2
4	-7	5	-1.4
5	6	3	7.2
6	x	-5	-4.4
7	-5	5	8.3
8	0	-11	-11
9	4	12	3.9
10	1	11	5.8

# New compounds follow:
cpd	molecule	Mtb hypoxia rep	Mtb hypoxia rep growth	Bead autofluor	PrP UTR inh
11	COCCN(CCOC)C(=O)c1cc2c(=O)n3ccccc3nc2s1	0	4	11491	-4
12	Cc1cc(C)nc(NC(=O)c2ccc(Br)cc2)n1	10	-1	4483	-1
13	CCc1ccc(OC)c(S(=O)(=O)Nc2ccccc2C)c1	14	9	6143	-58
14	CCOC(=O)CSc1nnc(-c2ccncc2)o1	x	x	5886	-6
15	COc1cc(Cl)cc2c1Sc1ccccc1/C2=C/CCN(C)C	5	10	u	-12
16	CC(C)(C)OC(=O)NCCC(=O)N/N=C/c1cccc2cccnc12	x	x	4085	-7
17	NC(=O)Cc1ncc(C(F)(F)F)cc1Cl	0	5	3168	-7
18	Cc1ccc(CN(C)c2nc(-c3cccnc3)nc3ccccc23)o1	4	4	3768	-8
19	Cc1ccc(C(=O)CC2(O)C(=O)N(Cc3ccc4c(c3)OCO4)c3ccccc32)cc1 (centres undefined)	x	x	4910	-11
20	O=C(CSc1nnnn1C1CCCCC1)NCc1cccs1	0	14	3432	-17

cpd	BJeLR viability	ugtP null kill	RN4220 kill
11	14	3	1.0
12	-4	4	2.2
13	3	0	6.4
14	4	9	0.0
15	6	18	-5.8
16	-3	x	x
17	6	18	9.6
18	-2	-19	-8.7
19	6	-11	2.2
20	1	-1	-1.3

# Further compounds:
cpd	molecule	Mtb hypoxia rep	Mtb hypoxia rep growth	Bead autofluor	PrP UTR inh
21	Cc1ccc(N(CC(=O)N2CCc3ccccc32)C2=NC(=O)CS2)cc1	-1	8	3062	-7
22	Cc1occc1-c1nnc(SCC(=O)c2ccc(F)cc2)n1Cc1ccco1	x	x	3386	-22
23	COc1cccc(CNS(=O)(=O)/C=C/c2ccc3c(c2)OCO3)c1	8	4	4516	-10
24	Cc1ccc(-c2nnc(Oc3cccc(C)c3)c3ccccc23)cc1	7	4	8237	-42
25	CC(Sc1nc(O)c(-c2ccccc2)c(=O)[nH]1)C(=O)Nc1ccc(Cl)cc1 (centres undefined)	10	5	4129	-30
26	CCN(CC)S(=O)(=O)c1ccc(S(=O)(=O)N2CCN(CCC#N)CC2)cc1	x	x	5943	2
27	C=CCNCCOCCOc1ccc(Cl)cc1C(C)(C)C	12	-1	9436	-3
28	CCOc1ccc(NS(=O)(=O)c2ccc(C(=O)NCc3ccccn3)cc2)cc1	9	10	u	-15
29	O=c1c2cn[nH]c2[nH]c(=S)n1-c1cccc2ccccc12	4	6	9459	-23
30	CC(C)(C)C(=O)Nc1ccc(S(=O)(=O)c2ccc(NC(=O)C(C)(C)C)cc2)cc1	13	1	8510	6

cpd	BJeLR viability	ugtP null kill	RN4220 kill
21	5	4	-3.5
22	4	-8	0.1
23	-3	0	10
24	-28	5	-4.6
25	-3	7	6.7
26	-12	3	2.1
27	11	-8	-2.3
28	-10	9	-3.0
29	3	3	0.5
30	-4	5	5.0

# (list continues)
cpd	molecule	Mtb hypoxia rep	Mtb hypoxia rep growth	Bead autofluor	PrP UTR inh
31	Cc1ccc(O)c(NC(=O)c2cc(-c3ccc(F)cc3)on2)c1	-1	9	4501	-69
32	O=C(COC(=O)C1CC2C=CC1C2)Nc1cccc(S(=O)(=O)N2CCCCC2)c1 (centres undefined)	8	-1	8099	-20
33	O=C(CC=NOCc1ccc(Cl)cc1Cl)c1ccccc1	1	-2	x	x
34	COc1ccc(CNC(=O)c2ccc3c(c2)N(C)CCS3)cc1	-5	-2	8241	-18
35	COC(=O)[C@H](Cc1ccccc1)NC(=O)[C@@H](N)CC(=O)O	x	x	5274	-45
36	NS(=O)(=O)c1ccc(NC(=O)CCCC(=O)O)cc1	2	5	5572	-10
37	Cc1ccc(-c2nn(-c3cc(Cl)ccc3[N+](=O)[O-])c(=O)c3ccccc23)cc1	8	5	24146*	11
38	CC1CCc2nc3ccccc3c(C(=O)OCC(=O)NC3CCS(=O)(=O)C3)c2C1 (centres undefined)	2	6	3873	-37
39	O=C(CC(=O)Nc1ccccc1F)Nc1ccccc1F	-4	-3	4769	-41
40	O=C(COC(=O)C=Cc1ccc(Cl)cc1Cl)NCCC1=CCCCC1	5	1	x	x

cpd	BJeLR viability	ugtP null kill	RN4220 kill
31	0	4	6.5
32	21	0	3.2
33	x	12	5.3
34	7	0	2.6
35	10	x	x
36	-7	6	6.3
37	-4	22	4.9
38	5	9	2.1
39	-7	-1	1.8
40	x	-1	7.1

# Following part
cpd	molecule	Mtb hypoxia rep	Mtb hypoxia rep growth	Bead autofluor	PrP UTR inh
41	c1ccn2c(SCc3ccc4c(c3)OCCO4)nnc2c1	0	4	4282	-70
42	Cc1ccc(-c2csc3nc(C)n(N)c(=O)c23)cc1	-1	10	2156	-13
43	CCOC(=O)c1c(C)[nH]c(C(=O)OCCOc2ccccc2C)c1C	-1	-1	2583	81*
44	COc1ccccc1-c1nnc(C2CCN(S(=O)(=O)c3ccc([N+](=O)[O-])cc3)CC2)o1	-2	1	5742	-7
45	Cc1cccc(NS(=O)(=O)c2c(C)[nH]c(C)c2C(=O)N2CCCC2)c1	-7	-11	4088	-25
46	COc1cc(-c2cc[n+](C)cc2)ccc1O	2	7	3548	-29
47	CC1=C(C#N)c2nc(N)c(C#N)c(C)c2/C1=C\c1ccc(OCC(=O)O)c(Cl)c1	-11	7	4772	-9
48	Cc1ccc(NC(=O)c2ccc(C(C)(C)C)cc2)cc1-n1cnnn1	10	12	4074	-15
49	CC(C)(C)OC(=O)NCc1ccc(CNC(=O)c2nc[nH]c2C(=O)N2CCN(c3ccccc3)CC2)cc1	17	16	2963	-21
50	COc1ccc(OCC(O)CN2CCOCC2)cc1 (centres undefined)	3	2	4005	-10

cpd	BJeLR viability	ugtP null kill	RN4220 kill
41	x	-5	-1.1
42	-5	6	2.9
43	-5	-5	0.8
44	-9	5	6.8
45	1	12	3.4
46	-8	4	2.0
47	6	3	10
48	1	6	13
49	x	5	5.4
50	0	4	1.9

# Given with one line to a screen: part of the list above
37: Cc1ccc(-c2nn(-c3cc(Cl)ccc3[N+](=O)[O-])c(=O)c3ccccc23)cc1
38: CC1CCc2nc3ccccc3c(C(=O)OCC(=O)NC3CCS(=O)(=O)C3)c2C1 (centres undefined)
39: O=C(CC(=O)Nc1ccccc1F)Nc1ccccc1F
40: O=C(COC(=O)C=Cc1ccc(Cl)cc1Cl)NCCC1=CCCCC1
41: c1ccn2c(SCc3ccc4c(c3)OCCO4)nnc2c1
42: Cc1ccc(-c2csc3nc(C)n(N)c(=O)c23)cc1
43: CCOC(=O)c1c(C)[nH]c(C(=O)OCCOc2ccccc2C)c1C
assay / entry	37	38	39	40	41	42	43
Mtb hypoxia rep	8	2	-4	5	0	-1	-1
Mtb hypoxia rep growth	5	6	-3	1	4	10	-1
Bead autofluor	24146*	3873	4769	x	4282	2156	2583
PrP UTR inh	11	-37	-41	x	-70	-13	81*
BJeLR viability	-4	5	-7	x	x	-5	-5
ugtP null kill	22	9	-1	-1	-5	6	-5
RN4220 kill	4.9	2.1	1.8	7.1	-1.1	2.9	0.8

44: COc1ccccc1-c1nnc(C2CCN(S(=O)(=O)c3ccc([N+](=O)[O-])cc3)CC2)o1
45: Cc1cccc(NS(=O)(=O)c2c(C)[nH]c(C)c2C(=O)N2CCCC2)c1
46: COc1cc(-c2cc[n+](C)cc2)ccc1O
47: CC1=C(C#N)c2nc(N)c(C#N)c(C)c2/C1=C\c1ccc(OCC(=O)O)c(Cl)c1
assay / entry	44	45	46	47
Mtb hypoxia rep	-2	-7	2	-11
Mtb hypoxia rep growth	1	-11	7	7
Bead autofluor	5742	4088	3548	4772
PrP UTR inh	-7	-25	-29	-9
BJeLR viability	-9	1	-8	6
ugtP null kill	5	12	4	3
RN4220 kill	6.8	3.4	2.0	10

# Later entries.
cpd	molecule	Mtb hypoxia rep	Mtb hypoxia rep growth	Bead autofluor	PrP UTR inh
51	CCn1c(NCc2ccccn2)nc2ccccc21	5	8	3247	-30
52	COc1ccc(/C=C/c2cc(C(F)(F)F)[nH]c(=O)n2)cc1OC	12	17	4405	-21
53	C/C=C/C(=O)Nc1cccc(C2=NOC3(C2)C[C@H](C(N)=O)N(C(=O)/C=C/C)C3)c1 (some centres undefined)	x	x	4109	-26
54	COc1cc(NC(=O)Cn2c(C)cc3ccccc3c2=O)cc(OC)c1OC	3	3	4177	-11
55	CN1CCN(C(=O)c2cc3c(s2)-c2ccccc2S(=O)(=O)C3)CC1	5	14	6054	-9
56	O=c1c2ccccc2nc(/C=C/c2cccnc2)n1Cc1ccccc1	19	9	2578	-12
57	CCOC(=O)C1CCCN(C(=O)CCC(=O)Nc2ccc3nc(N4CCOCC4)cc(C)c3c2)C1 (centres undefined)	3	4	8919	-30
58	COc1ccc([N+](=O)[O-])cc1NC(=S)NC(NC(=O)C(c1ccccc1)c1ccccc1)C(Cl)(Cl)Cl (centres undefined)	3	3	3242	-9
59	Cc1ccc(C(=O)OCC(=O)NCc2cccc(Cl)c2)cc1S(=O)(=O)N1CCCCC1	7	6	6086	-17
60	Cc1ccc(C)c2nc3sc(C(=O)N4CCCc5ccccc54)c(N)c3cc12	0	-1	14402	6

cpd	BJeLR viability	ugtP null kill	RN4220 kill
51	-1	9	2.6
52	-5	-9	0.2
53	-5	x	x
54	8	-2	3.8
55	2	6	3.2
56	2	-7	6.3
57	-12	2	0.2
58	4	-36	-14
59	x	-8	-4.0
60	-1	3	3.0

# (cont.)
cpd	molecule	Mtb hypoxia rep	Mtb hypoxia rep growth	Bead autofluor	PrP UTR inh
61	CN(C)C(=O)c1ccc(NC(=O)COC(=O)C2CCN(S(=O)(=O)c3ccc4c(c3)OCCO4)CC2)cc1	x	x	5327	6
62	O=C(COc1ccccc1)N1CCN=C1SCc1cccc(F)c1	2	-2	3346	-10
63	CC1CC(C)CN(c2ncnc3c2cnn3-c2ccc(Cl)cc2)C1 (centres undefined)	1	5	5316	-28
64	Oc1ccc(Cl)cc1CNc1ccccn1	-2	-1	4222	-29
65	O=C(Nc1nnc(C2COc3ccccc3O2)o1)c1ccc(F)cc1 (centres undefined)	3	4	2069	-33
66	CCCc1nc2oc3cc(OC)ccc3c(=O)c2c(=O)n1Cc1ccco1	4	-1	9567	0
67	NC(=O)c1ccc(SCC(=O)OCC(=O)NCc2cccs2)c([N+](=O)[O-])c1	10	4	4798	x
68	COc1ccc(Cl)cc1C(=O)NNC(=O)CN1C(=O)C2CC=CCC2C1=O (centres undefined)	-3	-9	4120	-36

cpd	BJeLR viability	ugtP null kill	RN4220 kill
61	7	x	x
62	-1	3	1.7
63	-2	6	2.1
64	0	25	4.9
65	-1	90*	98*
66	5	-1	-8.2
67	x	4	7.3
68	2	-10	4.6

# Screens from PubChem BioAssay.
